Bioassay records: PubChem BioAssay, several laboratories
Env fusion inh: inhibitors of HIV-1 Env-driven cell-cell fusion, primary screen, HeLa-JRFL effector, CEM21 target cells, luciferase; 360,000 compounds, 1.1% hits; inhibition, % at 12.3 µM;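 active = mean replicate inhibition score of at least 50 and every replicate individually at or above 50; inconclusive = only one of the two criteria met; inactive = mean below 50 and not all replicates reaching 50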;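 also: 0% = plate neutral controls and 100% = maraviroc near 300 nM; one replicate is shown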
Yeast UUG start: modulators of yeast start codon fidelity, primary screen, whole organism, S. cerevisiae, single point, plate reader; AID 602363, 2012; activity score, % at 18.7 µM; 350,000 compounds, 0.13% hits; S. cerevisiae UUG-firefly luciferase reporter, luminescence/redox ratio;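 active = replicate mean at a twofold rise or more, about +100% in these data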;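 also: firefly luciferase made from a UUG start codon reports start codon fidelity; reporter light over untreated wells divided by growth signal over untreated wells; some hits fall short of that in this replicate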
MT1-MMP act inh: blockers of MT1-MMP proenzyme processing, primary screen, HT1080 RFP-PRO-GFP cells, GFP/RFP fluorescence; 360,000 compounds, 0.061% hits; GFP/RFP ratio fluorescence, overnight; percent of plate control window, DMSO zero; GFP/RFP ratio change, % at 20 µM;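 active = GFP/RFP ratio change of at least 30% with cell ATP level not reduced by more than half and red fluorescence within 50% of control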; also: strong numbers were not always called active
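Test system: HT1080 RFP-PRO-GFP cells; Benchmarks: DMSO and RFP-L50D-GFP cell wells; Timing: cells overnight before dosing, compound overnight, 37 °C, 5% CO2; Compound: one 20 µM compound dose with 1% DMSO; Read-out: GFP/RFP fluorescence ratio.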
PABP FP inh: PABP poly(A) RNA binding inhibitors, primary screen, biochemical, fluorescence polarization, uHTS; inhibition, % at 35 µM; Polyadenylate-binding protein 1 (Homo sapiens), P11940; 290,000 compounds, 1% hits;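 active = 50% or more with normal probe brightness, or confirmed in later tests; inconclusive = above 50% with abnormal brightness, or retests that disagree; inactive = below 50% or failed in later tests; about a fifth of its hits are not listed in these tables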;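 also: calls also rest on retests at 20 µM and on dose response follow-up; controls were probe without protein and protein plus probe with vehicle; some compounds called inactive have numbers as strong as hits; many hits fall short of the cut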
eIF4H inh: human eIF4H binding inhibitors, primary screen, translation initiation inhibitor project, biochemical, uHTS, fluorescence polarization; 290,000 compounds, 0.94% hits; inhibition, % at 35 µM; Eukaryotic translation initiation factor 4H (Homo sapiens), Q15056; eIF4H fluorescence polarization binding assay;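 active = 50% or more with normal probe brightness, or confirmed in later tests; inconclusive = above 50% with abnormal brightness, or retests that disagree; inactive = below 50% or failed in later tests; about a fifth of its hits are not listed in these tables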;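 also: calls also rest on retests at 20 µM and on dose response follow-up; 0% = protein and probe with vehicle and 100% = probe without protein; strong numbers were not always called active; many hits fall short of the cut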
Rce1 inhib: yeast Rce1p protease inhibitors, primary screen, biochemical, fluorescence, cell-free homogeneous; 290,000 compounds, 0.27% hits; AID 2563, 2010; calls only; yeast membranes, quenched prenylated peptide cleavage fluorescence; CAAX prenyl protease 2 (Saccharomyces cerevisiae (strain ATCC 204508 / S288c)), Q03530;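 active = fall in fluorescence gain of 50% or more versus controls, with final raw signal at or below 3038400; inconclusive = same 50% fall but final raw signal above 3038400; inactive = fall in fluorescence gain under 50%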;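 also: plate controls were neutral control wells for no effect and wells lacking membranes for full effect; tested at 10 µM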
Target sequence (Q03530 whole entry, looked up): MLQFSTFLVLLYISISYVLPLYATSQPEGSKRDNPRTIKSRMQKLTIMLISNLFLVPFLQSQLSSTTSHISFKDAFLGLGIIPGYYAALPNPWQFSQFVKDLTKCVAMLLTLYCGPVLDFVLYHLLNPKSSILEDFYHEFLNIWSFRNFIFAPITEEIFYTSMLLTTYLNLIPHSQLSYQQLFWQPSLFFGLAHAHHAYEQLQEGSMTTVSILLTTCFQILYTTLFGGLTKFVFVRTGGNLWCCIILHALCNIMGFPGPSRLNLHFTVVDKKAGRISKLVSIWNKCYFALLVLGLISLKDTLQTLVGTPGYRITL
CSC inhib: cancer stem cell viability inhibitors, primary screen, luminescence; cancer stem cell-like cells viability; inhibition, % at 7.5 µM; 300,000 compounds, 1.1% hits;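 active = mean at 75% or more and at least half the replicates too; inconclusive = mean and replicates disagree; tested in HMLE shEcad cells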;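 also: 0% = median of negative and 100% = median of positive control wells; the first replicate is given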
MT1-MMP act inh RFP: further read-out of MT1-MMP act inh, marked with its call; RFP signal change, %; measured here: RFP expression control read;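 0 = vehicle wells; hits needed this value within 50% of zero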
Starred values were filed as active, the others as inactive; i = inactive; ? = inconclusive; . = not tested or not shown; & = joins results of further samples. A portion of the library; rates above refer to the full screens.

Below each SMILES – Env fusion inh, Yeast UUG start, MT1-MMP act inh, MT1-MMP act inh RFP, PABP FP inh, eIF4H inh, Rce1 inhib, CSC inhib
Cc1ccc(S(=O)(=O)N2C[C@]3(O)C[C@@H]4C(=O)N(c5ccccc5)C(=O)[C@@H]4C[C@]3(OC(=O)NC3CCCC3)C2)cc1
  -24.2, 2.3, 4.1, 5.3, ., ., ., .
CCOc1ccccc1C1C(C(=O)Nc2ccc(OC)cc2)=C(C)Nc2nc(CCCO)nn21 (stereo not drawn)
  4.0, -6.5, -0.7, 4.7, -3.7, -8.8, i, -20.8
O=C(Nc1cc(C(F)(F)F)ccc1Cl)C1CCN(c2nnc(-n3cccc3)s2)CC1
  ., -6.0, 4.3, -5.1, 7.4, 1.4, ., .
Cc1ccc(S(=O)(=O)N(C)C)cc1NC(=S)N(CCC#N)Cc1cccnc1
  19.1, ., 0.7, -0.4, -8.5, -4.9, i, -3.8
CN(C)CCNC(=O)Nc1cccc(Cl)c1Cl
  ., -18.6, -1.2, 0.8, -8.6, -4.6, i, -13.4
CC1CC(C)CN(CCCNC(=O)c2ccc3c(SCC(=O)O)c4c(nc3c2)CCC4)C1 (stereo not drawn)
  -14.4, 10.0, 10.2, 5.3, 3.6, 7.0, i, -8.7
CCN(CCn1cccn1)C(=O)c1cc(COc2ccc(F)cc2Cl)on1
  14.7, -9.8, -1.6, -5.7, 5.5, 0.6, i, -11.6
CN(C)c1ccc(CN(C(=O)C2COc3ccccc3O2)C2CCS(=O)(=O)C2)cc1 (stereo not drawn)
  -47.0, -4.6, -4.5, -4.2, 3.8, -8.0, i, -2.7
CCCC(=O)NC(C)c1nc2ccccc2n1C (stereo not drawn)
  -12.8, 9.8, -1.3, 4.4, 2.1, -1.6, i, 11.8
O=C(c1cc2sccc2n1Cc1ccc(F)cc1)N1CCc2ccccc21
  ., -7.5, -12.5, -7.0, 6.3, -5.9, i, 25.9
Cc1occc1-c1nnc(SCC(=O)NCCc2ccccc2)o1
  8.3, -2.3, 7.5, 4.9, -9.9, -14.5, i, 0.7
[O-][n+]1ccc(C(O)c2ccccc2)cc1 (stereo not drawn)
  -12.3, -11.7, -1.1, -1.7, 0.7, 6.3, i, -4.0
Cc1ccc([N+](=O)[O-])cc1S(=O)(=O)NCc1cccnc1
  -1.6, ., -1.3, -0.1, 6.1, 5.7, i, -16.5
Cc1cc(C)c(C(=O)COC(=O)c2cccc(S(=O)(=O)N3CCOCC3)c2)cc1C
  13.4, -2.8, -2.2, 1.2, ., ., ., .
COc1ccc(-c2ccc(C(=O)Nc3ccc4c(c3)OCO4)c3occc23)c(C)c1
  -60.7, 6.0, -0.7, -13.6, ., ., ., .
CSc1ccc(/C=N/NC(=O)CN2CCN(Cc3ccc(Cl)cc3)CC2)cc1
  30.8, ., 2.9, -3.5, 8.0, -0.4, i, 0.0
Cc1ccc(NC(=O)C(=O)c2c[nH]c3ccccc23)cc1
  -244.8, -8.5, 6.0, -8.3, -1.3, 0.2, i, 3.4
COc1ccc([C@@H]2CC=C(C(=O)O)CN2S(=O)(=O)c2ccc(C)cc2)cc1OC
  ?, 6.0, -2.1, -0.6, ., ., ., -5.6
COC(CNC(=O)CSCc1nc(-c2ccc(SC)cc2)oc1C)OC
  11.9, ., 3.0, -4.2, -13.9, -7.6, i, 1.1
O=C(CCSCc1ccccc1Cl)NCc1ccco1
  6.7, ., -2.3, -3.0, 6.9, 4.5, i, -4.6
CCNC(=O)/N=C1/NC(=O)C(C(C)C)O1 (stereo not drawn)
  -0.2, -13.1, -0.2, 5.5, -15.0, -3.4, i, 11.0
CCOC(=O)c1c(C)[nH]c(C)c1S(=O)(=O)NCC1CCN(Cc2ccccc2OC)CC1
  1.1, ., 2.5, 6.2, 9.7, -7.0, i, -7.8
CCOc1ccc(NS(=O)(=O)c2ccc3c(c2)CCN3C(C)=O)cc1
  6.4, -3.7, 2.2, -12.4, -8.3, 2.3, i, 3.7
O=C(CN1C(=O)c2ccccc2S1(=O)=O)NCCc1ccc(F)cc1
  ., -13.6, -2.6, 1.9, ., ., ., -7.2
CCCn1c(CC)nc([N+](=O)[O-])c1Sc1ncn[nH]1
  23.3, -14.8, -0.8, -1.3, ., ., ., .
COC(=O)c1ccc(CSc2nc3ccc(S(N)(=O)=O)cc3[nH]2)cc1
  1.3, -14.2, -3.2, 0.9, -1.3, -11.6, i, .
O=C1C2CCCCN2C(=O)N1CCCCN1CCN(c2cccc(Br)c2)CC1 (stereo not drawn)
  -1.9, -2.6, 1.4, -2.7, 0.6, -14.4, i, -1.3
OCCN(Cc1ccccc1)Cc1cccc(F)c1
  -28.7, 5.0, -5.9, 0.8, 19.4, 11.3, i, .
Cc1cc(C)c(C)c(C(=O)C2OC(=O)C(C)(C)C(=O)C2(C)C)c1C (stereo not drawn)
  5.6, -10.1, 3.9, 5.0, -3.9, 2.7, i, 47.5
CCc1ccc(NC(=O)N(CCN(C)C)C(C)c2cccnc2)cc1 (stereo not drawn)
  -6.2, -16.2, 3.2, 5.9, -10.6, -5.7, i, -2.1
O=C(CCCSc1ccccc1)Nc1nc(-c2ccccn2)cs1
  ., -39.5, 4.3, -2.6, 6.1, -2.0, i, 14.9
NS(=O)(=O)c1cc(C(=O)OCC(=O)N2CCOCC2)ccc1Cl
  2.1, -7.0, -1.3, 1.3, -12.4, -10.6, i, -13.3
O=C(O)c1cccc(NC(=O)C2CC(=O)N(Cc3ccccc3)C2)c1 (stereo not drawn)
  ., 3.2, 3.9, 3.5, -3.7, -4.4, i, -8.0
COc1ccc(CN(C)C(=O)c2ccc(NC(=O)CC3SC(N4CCCC4)=NC3=O)cc2)c(OC)c1OC (stereo not drawn)
  -5.4, ., 4.8, 1.4, ., ., i, 2.2
COc1cccc(CNC(=O)Cc2csc(Nc3nc(=S)[nH]c4ccccc34)n2)c1
  8.7, -28.6, 3.4, 1.8, -3.5, 4.7, i, 5.5
CC(C)(C)c1cccc(/C=N/O)c1O
  9.9, 6.0, -2.2, -0.1, 0.8, -11.7, i, -14.1
COc1ccc(CCNC(=O)c2nc(-c3cccs3)no2)cc1OC
  17.7, ., 5.5, -2.8, -11.8, 17.0, i, -0.8
CC1CC(C)CN(CC(=O)Nc2ccc3c(c2)OCCO3)C1 (stereo not drawn)
  -29.9, -6.3, 5.7, 5.8, -6.8, 4.2, i, 8.6
COc1ccc2c(c1)cc1n2CCN2CCCN=C12
  ., -19.2, 6.1, 2.6, -5.2, 8.7, i, -15.2
COc1ccc(-c2noc(COc3ccc4c(c3)OCO4)n2)cc1
  ., -25.8, 4.0, 1.0, 5.0, 3.4, i, 12.3

The last 2 entries of the section before are carried over, then new ones follow.
Below each SMILES – Env fusion inh, Yeast UUG start, MT1-MMP act inh, MT1-MMP act inh RFP, PABP FP inh, eIF4H inh, Rce1 inhib, CSC inhib
COc1ccc2c(c1)cc1n2CCN2CCCN=C12
  ., -19.2, 6.1, 2.6, -5.2, 8.7, i, -15.2
COc1ccc(-c2noc(COc3ccc4c(c3)OCO4)n2)cc1
  ., -25.8, 4.0, 1.0, 5.0, 3.4, i, 12.3
O=[N+]([O-])c1cccc(N/N=C/c2ccc(N3CCOCC3)cc2)c1
  -28.0, -22.3, 2.9, -2.3, 2.3, 1.5, i, 54.0
O=C(CCNC(=O)c1ccc(Cl)cc1)Nc1ccc(Cl)cc1F
  -28.7, ., 2.9, 6.8, 13.3, 3.2, i, -8.5
CCc1nnc(NC(=O)CSc2nnc(CNc3cccc(C)c3)n2-c2ccccc2)s1
  ?, -17.7, 6.0, 1.4, -4.8, 3.9, i, -3.8
COc1ccc(NC(=O)CSc2nc3nc(-c4cccs4)cc(C(F)(F)F)c3c(=O)[nH]2)c(OC)c1
  -13.0, -19.3, 4.9, -1.7, -0.1, -2.2, i, 13.8
O=C(Nc1cccnc1)c1cc2c(ccc3ccccc32)o1
  ., -24.8, 6.0, -0.6, -1.8, -16.0, i, -4.9
CC(C)c1nc2oc3c(NCC4CCCO4)ncnc3c2c2c1CCC2 (stereo not drawn)
  21.5, -13.4, 11.9, -7.3, -3.6, 4.1, i, 19.9
NNC(=O)Cc1cn(-c2ncc(C(F)(F)F)cc2Cl)c2ccccc12
  ., -13.0, -0.6, 1.4, 0.7, -6.7, i, 1.4
C[C@@H]1CN([C@@H](C)CO)C(=O)c2cc(NC(=O)C3CC3)ccc2O[C@@H]1CN(C)Cc1ccc(Cl)c(Cl)c1
  -183.2, 10.2&-8.6, -0.9, -2.2, ., ., ., .
COc1cc(C2Nc3c(F)cccc3C3C=CCC32)cc(Br)c1OC (stereo not drawn)
  4.9, ., 0.6, -3.6, -7.9, 13.1, i, 3.6
O=S(=O)(NCCSc1nnnn1-c1ccccc1)c1cccs1
  ., -9.5, 0.4, -0.4, -4.3, 1.9, i, -11.5
CC(OC(=O)C1CC(=O)N(Cc2ccco2)C1)C(=O)Nc1ccc(F)cc1Cl (stereo not drawn)
  0.7, -8.3, -1.1, 1.1, ., ., ., -22.3
COc1cccc(OC)c1C(=O)Nc1ccc2nc(C)c(C)nc2c1
  4.8, -9.9, 2.1, -0.7, -5.0, -10.3, i, -7.1
O=C(O)C(Cc1ccccc1)N1Cc2ccccc2C1=O (stereo not drawn)
  -63.4, -11.2, 4.7, 8.0, 8.1, -6.7, i, -11.8
Cc1noc(C)c1C(=O)N1CCCC(C(=O)c2cccc(C(F)(F)F)c2)C1 (stereo not drawn)
  20.6, 7.9, -1.5, -2.4, -6.7, -10.8, i, 3.7
COC(=O)C1CC(=O)c2sccc2C1 (stereo not drawn)
  -5.4, ., 1.0, 5.5, 6.9, 10.8, i, -2.6
COc1ccc(NC(=O)CSc2nc3ccccc3cc2Cc2ccccc2)cc1
  ., -22.8, -8.5, -6.3, 6.9, 5.3, i, 28.7
Cc1ccc(S(=O)(=O)N2CCN(C)CC2)cc1[N+](=O)[O-]
  ., ., 7.8, 4.5, 4.8, 4.2, i, -3.5
CCn1ccnc1CN(C)Cc1cn(-c2ccccc2)nc1-c1ccc(OC)cc1F
  0.2, -26.6, -7.1, -7.0, 9.0, -6.0, i, -1.1
